Screening results deposited in PubChem by several laboratories.
KOR beta-arrestin-1: KOR antagonists, beta-arrestin recruitment, cell-based, luminescence, uHTS (AID 1778) | KOR beta-arrestin recruitment, luminescence, antagonist mode; higher % means a stronger effect | inhibition, % at 10 µM; hits with a dose series show IC50 in µM | 0.091% of 290,000 active; in the data active means inhibition above about 50%; further: strong numbers were not always called active
GPR55 beta-arrestin: selective activators of receptor GPR55 – imaging, U2OS cells, beta-arrestin-GFP redistribution, primary screen (AID 1961); one-dose activation, % at 10 µM; EC50 in µM for titrated hits; 0.048% of 290,000 active; U2OS GPR55 beta-arrestin-GFP redistribution imaging; higher % means a stronger effect;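 active means activation above 40% with more than 50 cells counted in the well; inconclusive means wells holding fewer than 50 cells, flagged as toxic or sparse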;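 further: U2OS osteosarcoma cells stably expressing GPR55 and beta-arrestin-GFP; plate controls were DMSO negative control for no effect and LPI positive control for full effect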
HIV peptide binding: inhibitors of HIV fusion peptide binding, primary screen, biochemical, uHTS, fluorescence dequenching (AID 1986). cell-free peptide binding, fluorescence dequenching, 30 min; higher % means a stronger effect. inhibition, % at 20 µM, or IC50 in µM where a hit was titrated. 0.3% of 290,000 active; in the data active means inhibition mostly above about 52%, no sharp cut-off; inactive means mostly below about 76%; further: some results filed as inactive read as strong as hits
SV40 large T antigen: SV40 large T antigen inhibitors, biochemical (AID 1903); inhibition, % at 20 µM, or IC50 in µM where a hit was titrated; SV40 large T antigen ATPase/helicase inhibition assay; higher % means a stronger effect; 0.39% of 310,000 active; in the data active means a potency from the dose series; inconclusive means inhibition mostly from about 32% at the one dose, without a potency; inactive means the rest, 99 in 100 with inhibition below about 32%; further: strong numbers were not always called active
GPR55 antagonists: inhibition of LPI-stimulated GPR55 beta-arrestin translocation – imaging, U2OS, beta-arrestin-GFP, LPI agonist, primary screen (AID 2013). U2OS GPR55 beta-arrestin-GFP translocation imaging, LPI antagonism; higher % means a stronger effect. 0.13% of 290,000 active. one-dose inhibition, % at 10 µM; IC50 in µM for titrated hits;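 active means spots per cell inhibited over 60%, with over 100 cells counted and total cytoplasm intensity under 500,000; inconclusive means wells with under 100 cells, flagged as likely toxic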;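 further: U2OS cells stably carrying GPR55 and arrestin-GFP stimulated by 5 µM LPI near EC80; imaged beta-arrestin-GFP aggregate spots per cell after agonist stimulation; plate controls were LPI-stimulated DMSO wells for no effect and DMSO wells without LPI for full effect; some results filed as inactive read as strong as hits; confirmed hits need IC50 under 10 µM and bright autofluorescent wells are also inconclusive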
Rac1 GTP hydrolysis: MgcRacGAP GTPase-activating activity inhibitors, confirmation, biochemical, ADP Hunter fluorescence. MgcRacGAP-stimulated Rac1 GTP hydrolysis, ADP Hunter fluorescence; higher % means a stronger effect; GST-tagged Rac1 F28L mutant substrate. AID 624330. 0.6% of 340,000 active. one-dose inhibition, % at 30 µM; IC50 in µM for titrated hits;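 active means first-screen hits whose inhibition reached a set limit at any dose in the follow-up dose series; inconclusive means inhibition above the set first-screen limit but never retested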;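 further: fluorescence reports GDP produced by GAP-driven GTP hydrolysis; strong numbers were not always called active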
KOR beta-arrestin-2: KOR agonists, beta-arrestin recruitment, primary screen, cell-based, luminescence, uHTS (AID 1777) | KOR beta-arrestin recruitment, luminescence; higher % means a stronger effect | one-dose activation, % at 10 µM; EC50 in µM for titrated hits | 0.02% of 280,000 active; in the data active means activation above about 50%, passing the limit was not always enough; further: a part of the inactive calls stands beside numbers as strong as those of hits
Numbers without * were called inactive; ? = inconclusive; nt = not tested or not shown; [ ] = dose if it differs, or a comment. This is a subset. The share of hits here may be higher or lower than overall.

Letter code: A = KOR beta-arrestin-1; B = GPR55 beta-arrestin; C = HIV peptide binding; D = SV40 large T antigen; E = GPR55 antagonists; F = Rac1 GTP hydrolysis; G = KOR beta-arrestin-2
> O=C(Nc1cc(S(=O)(=O)Nc2ccccc2Cl)ccc1O)c1cc2c(s1)CCCC2
  A = 18% | B = -0.1% | C = -1.7% | D = 22% | E = 0% | F = 11% | G = 1.8%
> COc1ccc(C(=O)N/N=C(\c2ccccc2)c2ccccn2)cc1
  A = 15% | B = -0.3% | C = 1.2% | D = -3% | E = 2% | F = 5% | G = -5.5%
> CCCCCCCCCn1c2c(c(=N)c3c1CCC3)CCCC2
  A = -108% | B = 12% | C = -1.6% | D = 20% | E = 19% | F = nt | G = 7.7%
> COc1ccc(CNC(=O)c2cc3c(C)nc4ccccc4c3o2)c(OC)c1
  A = 4% | B = -0.2% | C = -2.2% | D = 4% | E = 0% | F = nt | G = 1.2%
> Cc1ccc(NC(=O)/C=C/c2ccc([N+](=O)[O-])s2)c(C)c1
  A = 11% | B = -0.3% | C = 5.7% | D = 12% | E = 0% | F = 5% | G = 56%
> O=C(NCc1cccnc1)/C(=C/c1ccc(-c2cccc(Cl)c2)o1)S(=O)(=O)c1ccccc1
  A = 28% | B = 0.2% | C = 0.0% | D = ? | E = 27% | F = -2% | G = 2.3%
> O=C(CCl)N(Cc1ccccc1)c1ccccc1
  A = 16% | B = -0.3% | C = -1.7% | D = 16% | E = 14% | F = 10% | G = 0.7%
> CCCCCCCCn1c2c(c(=N)c3ccccc31)CCC2
  A = -120%[20 µM] | B = 0.2% | C = 0.2% | D = 10% | E = 21% | F = nt | G = nt
> CCOC(=O)c1sc(N2C(=O)C(O)=C(C(=O)c3ccco3)C2c2ccco2)nc1C (stereo not given)
  A = 1% | B = -0.3% | C = 19% | D = 9% | E = 74% | F = 8% | G = -0.5%
> CCn1nc(C)c(NC(=O)/C=C/c2ccc(OC)c(COc3ccc(Br)cc3)c2)c1C
  A = 18% | B = -0.1% | C = -3.5% | D = -8% | E = 15% | F = -3% | G = 2.9%

The closing 6 records of the part before open the next one:
Letter code: A = KOR beta-arrestin-1; B = GPR55 beta-arrestin; C = HIV peptide binding; D = SV40 large T antigen; E = GPR55 antagonists; F = Rac1 GTP hydrolysis; G = KOR beta-arrestin-2
> Cc1ccc(NC(=O)/C=C/c2ccc([N+](=O)[O-])s2)c(C)c1
  A = 11% | B = -0.3% | C = 5.7% | D = 12% | E = 0% | F = 5% | G = 56%
> O=C(NCc1cccnc1)/C(=C/c1ccc(-c2cccc(Cl)c2)o1)S(=O)(=O)c1ccccc1
  A = 28% | B = 0.2% | C = 0.0% | D = ? | E = 27% | F = -2% | G = 2.3%
> O=C(CCl)N(Cc1ccccc1)c1ccccc1
  A = 16% | B = -0.3% | C = -1.7% | D = 16% | E = 14% | F = 10% | G = 0.7%
> CCCCCCCCn1c2c(c(=N)c3ccccc31)CCC2
  A = -120%[20 µM] | B = 0.2% | C = 0.2% | D = 10% | E = 21% | F = nt | G = nt
> CCOC(=O)c1sc(N2C(=O)C(O)=C(C(=O)c3ccco3)C2c2ccco2)nc1C (stereo not given)
  A = 1% | B = -0.3% | C = 19% | D = 9% | E = 74% | F = 8% | G = -0.5%
> CCn1nc(C)c(NC(=O)/C=C/c2ccc(OC)c(COc3ccc(Br)cc3)c2)c1C
  A = 18% | B = -0.1% | C = -3.5% | D = -8% | E = 15% | F = -3% | G = 2.9%
> COc1cc(-c2nnc(SCC3(c4ccc(Br)cc4)OCCO3)o2)cc(OC)c1OC
  A = -42% | B = -0.1% | C = -1.8% | D = 7% | E = 16% | F = 14% | G = 3.0%
> CN(C)S(=O)(=O)c1cccc(NC(=O)COC(=O)c2ccc(Br)o2)c1
  A = -12% | B = 0.2% | C = -1.9% | D = 0% | E = -2% | F = -3% | G = 0.2%
> O=c1c(C=Nc2ccc(Cl)cc2)c[nH]n1-c1cccc(Cl)n1
  A = -18% | B = -0.1% | C = -3.9% | D = 2% | E = 4% | F = 3% | G = 2.5%
> O=C(CN1CCN(S(=O)(=O)c2ccc(F)cc2)CC1)Nc1cc(C(F)(F)F)ccc1Cl
  A = -36% | B = -0.2% | C = -3.4% | D = 7% | E = -1% | F = 4% | G = 0.8%
> Cc1c(C)n(Cc2ccccc2)c2ncnc(Cl)c12
  A = -10% | B = 0.0% | C = -0.3% | D = -1% | E = -14% | F = 9% | G = -6.4%
> Cc1cc(Cl)c(S(=O)(=O)N2CCCCCC2)cc1OCC(=O)NC1CCCCC1
  A = -37% | B = -0.1% | C = 1.2% | D = -1% | E = -11% | F = 7% | G = 3.3%
> COc1ccc(NS(=O)(=O)c2cccc(NC(=O)c3ccc(Cl)nc3)c2)cc1
  A = -59%[20 µM] | B = -0.1% | C = 1.3% | D = 3% | E = 1% | F = 10% | G = -4.8%
> COc1ccccc1-c1nnc(Sc2nc([N+](=O)[O-])nn2C)o1
  A = 11% | B = -0.2% | C = 0.0% | D = 28% | E = 20% | F = 11% | G = -2.8%
> Cc1c(CCC(=O)O)c(=O)oc2cc(OCc3ccccc3Br)ccc12
  A = -4% | B = 0.3% | C = 8.6% | D = 7% | E = 5% | F = -3% | G = 0.5%
> COc1ccc2cc3c(N)nn(C(=O)c4ccc(F)cc4)c3nc2c1
  A = -4% | B = -0.1% | C = -0.6% | D = 13% | E = 2% | F = -2% | G = 1.6%

Letter code: A = KOR beta-arrestin-1; B = GPR55 beta-arrestin; C = HIV peptide binding; D = SV40 large T antigen; E = GPR55 antagonists; F = Rac1 GTP hydrolysis; G = KOR beta-arrestin-2
> C=CCN(CC=C)C(=S)NC(=O)c1ccc(-c2ccccc2)cc1
  A = -26% | B = 0.0% | C = 0.9% | D = 0% | E = 4% | F = 6% | G = -2.1%
> CCC(=O)Nc1cccc(-c2nnc(-c3cccc(NC(=O)CC)c3)o2)c1
  A = 1% | B = -0.1% | C = -1.5% | D = 4% | E = 23% | F = 9% | G = 0.4%
> O=c1cc(CSc2ccc(Cl)cc2)nc(-c2ccccn2)[nH]1
  A = 4.9µM* | B = -0.1% | C = -1.8% | D = 10% | E = 14% | F = 10% | G = -1.1%
> Nc1ncc([N+](=O)[O-])c(N2CCCCCC2)n1
  A = -18% | B = -0.2% | C = 0.3% | D = 12% | E = -15% | F = 2% | G = 7.8%
> COc1ccc(-c2cncnc2-c2ccc(OC)cc2O)cc1
  A = 0% | B = 0.5% | C = -0.4% | D = 7% | E = -2% | F = 2% | G = 3.7%
> O=c1c2c(nc3c(-c4ccc(Cl)cc4)c[nH]n13)CCCC2
  A = 60% | B = -0.1% | C = 1.9% | D = 27% | E = 6% | F = 12% | G = -3.8%
> CCN(CC)S(=O)(=O)c1ccc(C(=O)Nc2ccc(Cc3ccncc3)cc2)cc1
  A = 22%[20 µM] | B = -0.1% | C = -0.3% | D = 14% | E = -2% | F = 5% | G = nt
> CC1CCc2c(sc(NC(=O)c3cccs3)c2C(=O)O)C1 (stereo not given)
  A = -23% | B = 0.0% | C = 25% | D = 11% | E = 9% | F = 9% | G = 4.1%
> Cn1c(Sc2ccc(Br)cc2)c(C=O)c2ccccc21
  A = 10% | B = 0.3% | C = -2.5% | D = -10% | E = 41% | F = 8% | G = -2.1%
> O=C(N/N=C/c1ccc2c(c1)OCO2)c1ccc(Br)o1
  A = -23% | B = 0.3% | C = -1.3% | D = 26% | E = -2% | F = 1% | G = 0.5%
> COc1ccc(C(=O)CN2C(=O)c3ccccc3S2(=O)=O)cc1
  A = 6% | B = 0.3% | C = 0.4% | D = 9% | E = 10% | F = nt | G = -5.9%
> Cc1ccc(Nc2cc(C)nn2-c2nc(C)cc(=O)[nH]2)cc1
  A = 0.75µM* | B = 0.3% | C = 14% | D = 25% | E = 31% | F = ? | G = 3.2%
> CC[C@H]1CN2CCc3cc(OC)c(OC)cc3[C@@H]2C[C@@H]1C[C@H]1NCCc2cc(OC)c(OC)cc21
  A = 9% | B = -0.2% | C = 1.0% | D = 9% | E = 9% | F = -1% | G = -4.6%

Just SV40 large T antigen, for some of the entries so far:
compound	SV40 large T antigen
Nc1ncc([N+](=O)[O-])c(N2CCCCCC2)n1	12%
O=c1c2c(nc3c(-c4ccc(Cl)cc4)c[nH]n13)CCCC2	27%
